# Source: PubChem BioAssay (National Center for Advancing Translational Sciences (NCATS))
# NPR1 antag – antagonists of human natriuretic peptide receptor Npr1; P16066; HEK293 hNpr1 GloSensor cGMP, ANP-stimulated luminescence; Potency, µM (highest dose often 46.3 µM), without a hit: at the top dose activity change, negative = inhibition, most hits filed as inhibitors; 76,000 tested, 1.6% active; AID 1347048; active = well fitted inhibition curve with a large enough effect; inconclusive = small, poorly fitted or top-dose-only effect; inactive = no such curve, though single readings can be large or run the other way;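 note: nearly all actives have a fitted effect of over 60% in size; nearly all hits also lower the signal before the agonist is added; a reference antagonist and vehicle were the controls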
# Target sequence (P16066 whole entry, looked up): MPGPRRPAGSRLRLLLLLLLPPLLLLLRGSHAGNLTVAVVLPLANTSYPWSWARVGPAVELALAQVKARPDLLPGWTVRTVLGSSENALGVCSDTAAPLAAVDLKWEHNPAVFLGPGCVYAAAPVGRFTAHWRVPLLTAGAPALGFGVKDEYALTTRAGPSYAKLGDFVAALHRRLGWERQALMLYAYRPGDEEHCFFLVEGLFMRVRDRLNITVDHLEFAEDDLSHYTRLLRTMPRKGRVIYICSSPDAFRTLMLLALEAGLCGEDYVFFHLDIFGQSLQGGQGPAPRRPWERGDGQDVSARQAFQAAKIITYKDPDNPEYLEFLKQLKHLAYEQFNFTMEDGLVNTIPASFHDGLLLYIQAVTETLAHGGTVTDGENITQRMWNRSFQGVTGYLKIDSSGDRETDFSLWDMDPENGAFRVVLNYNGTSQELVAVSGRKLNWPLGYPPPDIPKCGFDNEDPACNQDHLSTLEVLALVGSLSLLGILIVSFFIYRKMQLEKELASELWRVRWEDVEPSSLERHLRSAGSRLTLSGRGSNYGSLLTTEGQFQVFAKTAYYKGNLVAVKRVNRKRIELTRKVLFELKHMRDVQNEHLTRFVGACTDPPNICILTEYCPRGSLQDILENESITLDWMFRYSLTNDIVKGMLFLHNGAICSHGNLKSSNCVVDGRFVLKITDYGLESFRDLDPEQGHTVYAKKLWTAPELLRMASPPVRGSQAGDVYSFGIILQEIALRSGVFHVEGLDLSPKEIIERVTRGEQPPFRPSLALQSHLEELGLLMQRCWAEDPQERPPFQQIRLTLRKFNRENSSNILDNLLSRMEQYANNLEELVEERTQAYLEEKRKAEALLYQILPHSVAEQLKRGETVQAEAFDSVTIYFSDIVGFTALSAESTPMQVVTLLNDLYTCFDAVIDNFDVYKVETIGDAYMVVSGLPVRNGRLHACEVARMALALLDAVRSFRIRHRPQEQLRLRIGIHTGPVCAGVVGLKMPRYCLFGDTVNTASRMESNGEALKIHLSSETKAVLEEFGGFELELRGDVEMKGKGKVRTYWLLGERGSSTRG
#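 HEK293 cells stably expressing human Npr1 and cGMP GloSensor pGS-40F, loaded 2 h with 2% GloSensor reagent, given compound 30 min at room temperature. Luminescence read before and 20 min after 0.1 nM hNppA.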
# * = called active by the depositor; ? = inconclusive; [ ] = another dose, or the depositor's remark. % is set by controls: 0 for no effect and ±100 for the full control effect; potency is the fitted concentration of half-maximal effect.
SMILES,NPR1 antag
O=C(CCC[C@H]1NC[C@@H]2C[C@H]1CN(Cc1ccccc1)C2)NCCc1ccncc1,0%
OC1CCOC2(CCN(Cc3ccc(Br)o3)CC2)C1 (stereo unspecified),-2%
CN(CC1(C)CCOCC1)C(=O)c1ccc(Cl)s1,-4%
Cc1cccc(-c2noc([C@@H]3Cc4nc[nH]c4CN3C(=O)Nc3cccc(F)c3)n2)c1,?
COc1ccc(CC(=O)N[C@@H]2CN(C)C[C@H]2CN(C)C)cc1,6%
CNC(=O)[C@@H]1CN(C(=O)c2cocn2)C[C@H]1COC,1%
O=C1CC2(CCN(Cc3cccnc3)CC2)Oc2ccccc2N1,10%[70.6 µM]
CN(C)CCNC(=O)c1nc2nc(-c3ccccc3)c(-c3ccccc3O)cc2n1C,?
O=C(c1cccc(Cl)c1)N1CCC[C@H]1c1nc(-c2ccccc2)no1,-17%
CCn1ncc(N2CCC(NC(=O)c3ccc(OC)c(OC)c3)CC2)cc1=O,6%
Cc1ccc(-c2nccc3c(=O)cc(N4CCN(C)CC4)oc23)cc1,1%[70.6 µM]
CC(C)c1noc(-c2cccn3c(CNC(=O)c4cccc(F)c4)nnc23)n1,-2%
N#Cc1ccccc1CN1CCC2(CC1)CC(O)CCO2 (stereo unspecified),0%
Cc1ccc(C2Cn3nnc(-c4noc(-c5ccccc5Cl)n4)c3CO2)cc1 (stereo unspecified),7%
CC(C)C(C)NC(=O)C(NC(=O)c1ccccc1)C1CCN(C(=O)C2CCCC2)CC1 (stereo unspecified),3%
COc1ccccc1CN1CCc2nc(C(=O)Nc3ccccc3)oc2CC1,?
COc1ccc(CC(=O)Nc2ccc3ncnc(N4CCCC4)c3c2)c(Cl)c1,-15%
O=C(COc1ccccc1)N1CCCC1c1nc(C2CCOCC2)no1 (stereo unspecified),12%
CN(C)CC(=O)N1C[C@@H]2C[C@H](C1)c1ccc(-c3ccccc3CN3CCOCC3)c(=O)n1C2,-1%
O=c1c2c3c(nn2ccn1Cc1cc(F)cc(F)c1)CCCC3,-3%

# The last two compounds of the part before come first, to join the parts.
SMILES,NPR1 antag
CN(C)CC(=O)N1C[C@@H]2C[C@H](C1)c1ccc(-c3ccccc3CN3CCOCC3)c(=O)n1C2,-1%
O=c1c2c3c(nn2ccn1Cc1cc(F)cc(F)c1)CCCC3,-3%
CCOc1ccc(NC(=O)CC2CCCN(c3cnn(CC4CC4)c(=O)c3)C2)cc1 (stereo unspecified),16%
O=C1NCCCCCCN(Cc2ccncc2)[C@@H]2CN(C(=O)NCc3ccccc3)CC[C@@H]12,-8%
O=C1NCCCCCCN[C@H]2C[C@H](C(=O)N3CCc4ccccc4C3)C[C@@H]12,0%
C#CCNC(=O)c1nc(-c2cccc(C(F)(F)F)c2)c2ccccn12,-24%[70.6 µM]
O=C([C@H]1C[C@H](Oc2ccccc2)CN1C(=O)NCc1ccccc1)N1CCOCC1,6%
Cc1cccc(OCC(=O)N2CCc3nn(Cc4ccccc4)c(=O)n3CC2)c1,-11%
COc1ccc(-c2cc3c(cn2)CN(CCc2ccccc2)CCN3)cc1OC,-19%[70.6 µM]
CCc1ccc(NC(=O)N2CC(c3nnc(-c4ccncc4)o3)C3(CCOCC3)C2)cc1 (stereo unspecified),-2%
CCCn1nc(C)cc1CN(CC)C(=O)C1CCN(c2cnn(C)c(=O)c2)C1 (stereo unspecified),3%
COc1ccccc1CNC(=O)C1CC(=O)N(c2n[nH]c3ccccc23)C1 (stereo unspecified),2%
Cc1nn(-c2ccccc2)c(Oc2ccc(F)cc2F)c1CCC(=O)NCC1CCCO1 (stereo unspecified),-5%
O=C(CCN1Cc2ccccc2C1=O)N[C@H](c1cccs1)C1CC(O)C1 (stereo partly specified),6%
COc1ccccc1-c1ccc2ncn(C3CC3)c(=O)c2n1,3%[70.6 µM]
Cc1oc(C(O)c2cncnc2)nc1C(=O)Nc1ccc(N2CCOCC2)cc1 (stereo unspecified),-2%[70.6 µM]
O=C(NC[C@H]1O[C@@H](CO)[C@@H](O)[C@H]1N1CCN(c2ccccc2)CC1)N1CCOCC1,-2%
CCN(Cc1ccncc1)C(=O)CC1=C2CCCCC2N(C)C1=O (stereo unspecified),-3%
CCN1C(=O)C2(CCN(S(=O)(=O)c3ccc(OC)c(Cl)c3)CC2)c2ccccc21,4%
O[C@@H]1C[C@@H](c2nc(-c3cccnc3)no2)N(CC2CC2)C1,0%[70.6 µM]
COc1ccc(C(=O)N2CC(CO)C3(CCNCC3)C2)c(OC)c1 (stereo unspecified),0%
COc1ccc(C(=O)N2CC(c3noc(C4CCCN4CC4CC4)n3)C2)cc1 (stereo unspecified),3%
CC(C)C(=O)NCC12CCCC=C1N(C)C(=O)CC2 (stereo unspecified),3%
O=C(C1CCC(=O)N(C2CCCC2)C1)N1CCN(c2nccs2)CC1 (stereo unspecified),1%
Cc1cnc(C(=O)NC2C[C@H]3CC[C@@H](C2)N3C(=O)C2CC2)cn1 (stereo partly specified),2%
Cn1nc(C(=O)N2CCCN(S(=O)(=O)c3ccccc3)CCC(=O)NCC2)c2ccccc21,-3%
O=C1C[C@@H]2CCN(C(=O)Nc3cccc(C(F)(F)F)c3)C[C@@H]2CCN1CCN1CCNC1=O,4%
O=C(NCC1CCOc2ccccc2C1)c1cn(CCN2CCNCC2)nn1 (stereo unspecified),-2%
COc1ccc(CC(=O)N2CCC(Cc3nc(-c4ccccc4)no3)CC2)cc1Cl,13µM*
COc1cc(C(=O)NC2CCN(c3cc(-c4ccc(F)cc4)[nH]n3)CC2)cc(OC)c1OC,4%
COC(=O)[C@@H]1Cc2c([nH]c3ccccc23)[C@@H]2C[C@@H](NC(C)C)C[C@@H](c3ccc(F)cc3)N12,1%
COc1cc(NC(=O)C2CC(=O)N(c3n[nH]c4cccc(F)c34)C2)cc(OC)c1OC (stereo unspecified),2%
COc1cccc(C(=O)NCC2CCCN(Cc3cccc4nonc34)C2)c1OC (stereo unspecified),3%
CC(C)(C)NC(=O)C[C@@H]1CCNC[C@@H]1Cc1cc(COc2ccccc2)on1,5%[70.6 µM]
COc1cccc(C(=O)N2C(C(=O)NC3CC3)COC23CCN(C(=O)C2CC2)CC3)c1 (stereo unspecified),-1%
COC(=O)c1cc2n(n1)CCCN(C(=O)c1cc(C)nc3ccc(C)cc13)C2,2%
COc1ccccc1CC(=O)N1CCC(Cc2nc(-c3ccccc3)no2)CC1,?
CS(=O)(=O)N[C@H]1C[C@H]2C(=O)Nc3cc(Cl)ccc3C(=O)N2C1,4%[70.6 µM]
COC(=O)C1CCN([C@H]2[C@@H]3OC[C@@H](O3)[C@@H](NC(=O)Nc3ccc(F)cc3)[C@@H]2O)CC1,13%[70.6 µM]
CN(C(=O)c1ccsc1)C1CCc2nn(C)c(=O)n2CC1 (stereo unspecified),0%
COc1ccc(OCC2(C)COc3ccc(C(=O)Nc4ccn(C)n4)cc3N2)cc1 (stereo unspecified),18µM*
CC(C)(C)NC(=O)N1CCC2(CC1)C(=O)N(CC(=O)NCC1CCCO1)CN2c1ccccc1 (stereo unspecified),0%
CN1CCC([C@@H]2CN(C(=O)c3ccc4cc[nH]c4c3)C[C@H]2C(N)=O)CC1,4%
Cc1noc(-c2ccc(OC3CN(C(=O)Nc4ccccc4)C3)cc2)n1,13µM*
Cc1ccc(C)c(N2CCN(C(=O)CCn3ccn4nc5c(c4c3=O)CCCC5)CC2)c1,1%
NC1CCC(n2cc(C(=O)N3CCC(Nc4ccccn4)CC3)nn2)CC1 (stereo unspecified),-3%
CCC1=C(C(=O)OC)C(c2ccccc2)N2C(CC(=O)N3CCCC3)=CSC2=N1 (stereo unspecified),-24%
O=C(Nc1cccc(F)c1)N1CCC(O)(c2csc(CN3CCOCC3)n2)CC1,8%[70.6 µM]
Cc1nc(-c2cccc(Cl)c2)n(CC(=O)Nc2ccccc2F)c(=O)c1CCO,-15%
COC(=O)c1sccc1S(=O)(=O)N1CCN2C(=O)CN(C)C(=O)C2C1 (stereo unspecified),1%
O=C(Nc1cccc(F)c1)[C@@H]1C[C@H](c2ccc(F)cc2)N([S+](=O)([O-])C2CC2)C1,-14%[70.6 µM]
Cc1ccsc1CN1CCC(C2CCN(S(C)(=O)=O)CC2)C1 (stereo unspecified),1%
CN1C(=O)CCCCC1C(=O)NCc1cccc(F)c1 (stereo unspecified),1%
COC1CCOC2(CCN(C(=O)c3ccc(F)cc3)CC2)C1 (stereo unspecified),-1%
COC(=O)[C@@H]1Cc2ncn(Cc3ccccc3)c2CN1C(=O)COc1ccccc1,-7%[70.6 µM]
O=C(C1CCCC1)N1CCn2c(nn(-c3ccncc3)c2=O)C1,3%[70.6 µM]
CNC(=O)[C@@H]1C[C@H](Oc2cccnc2)CN1C(=O)C1CCCC1,3%
O[C@@H]1C[C@@H](c2nnc3n2CCN(Cc2ccc4c(c2)CCO4)C3)N(Cc2ccccc2)C1,-1%
CCCn1ccc2sc(C)c(C(=O)NC3CCCC3)c2c1=O,3%
COc1ccc(-c2cc(N3CCCC(NC(=O)c4cc(F)ccc4F)C3)n[nH]2)cc1 (stereo unspecified),?
O=C1CC(c2ccccc2)N(S(=O)(=O)c2ccccc2)CCCCCCN1 (stereo unspecified),2%
COc1cccc([C@@H]2CN(C(=O)c3n[nH]c4c3CCCC4)C[C@H]2C(=O)O)c1,-2%
# The listing continues.
SMILES,NPR1 antag
Cc1cccc(CN2CCCCCCN(C)C(=O)[C@@H]3CCC[C@@H]32)c1,-13%
COc1ccc(C[C@H](NC(=O)C2=C[C@@H](NC(=O)Nc3ccc(OC(F)(F)F)cc3)[C@@H](O)[C@H](O)C2)C(N)=O)cc1,5%
COc1cccc(CC(=O)NC2CCN(C(=O)N3CC4CC(C3)[C@H]3CCCC(=O)N3C4)CC2)c1 (stereo partly specified),-5%
COCCN(Cc1c(C)nn(C)c1C)CC1[C@H]2CNC[C@@H]12 (stereo partly specified),4%
COc1ncccc1-c1ccnc(-c2nnc(C)n2Cc2ccccc2)c1,-13%[70.6 µM]
Cc1ccccc1N1CCN(C(=O)c2cc3cn(C4CC4)cc3s2)CC1,-18%
O=C(NCc1ccccc1)C1=NO[C@@H]2CN(Cc3cccc(F)c3)C[C@H]12,0%[70.6 µM]
OCC1(CN2CCCC2)CCN(Cc2ccc(Cl)cc2F)CC1,8%
Cn1cccc1C(=O)N1CCC(N2C(=O)C3(CCCC3)C2c2ccccc2)CC1 (stereo unspecified),-2%
Cn1cc(CN2CCOC[C@H]2c2nc(C(C)(C)C)co2)c2ccccc21,9%[70.6 µM]
CN1CCCCCC(O)c2cc(C(=O)N3CCc4ccccc43)ccc21 (stereo unspecified),?
O=C(c1ccccc1)N1CCN(c2cc(-c3ccc(F)cc3)[nH]n2)CC1,-4%
COC(=O)[C@H](Cc1ccc(OC)cc1)NC(=O)[C@@H]1CN(C(=O)NC(C)C)CCN1C(=O)C1CCCCC1,3%
CC(C)CCN1CCc2ncc(C(=O)NCCOc3ccccc3)n2CC1,-4%[70.6 µM]
O=C(Cc1cccc(F)c1)N1CCC2(CC1)CN(c1ncccn1)CC2CO (stereo unspecified),-6%
O=C1NCCCCCCN(C(=O)CC(F)(F)F)[C@H]2C[C@H](c3nc(-c4cccnc4)no3)C[C@@H]12,17%
CC1(C(=O)N2CC=C(c3ccccc3)CC2)CCCCC(=O)N1 (stereo unspecified),-3%
CN1c2cc(C(=O)NC3CCCCCCC3)ccc2C(=O)N2CCCC21 (stereo unspecified),1%
O=C(CCc1nc2ccccc2s1)N1CCC(c2noc(-c3ccccc3)n2)C1 (stereo unspecified),?
O=C1CCNCCCOCCN1,5%

# Rewritten with the structure last: part of the list above
NPR1 antag,mol
-2%,Cn1cccc1C(=O)N1CCC(N2C(=O)C3(CCCC3)C2c2ccccc2)CC1 (stereo unspecified)
9%[70.6 µM],Cn1cc(CN2CCOC[C@H]2c2nc(C(C)(C)C)co2)c2ccccc21
?,CN1CCCCCC(O)c2cc(C(=O)N3CCc4ccccc43)ccc21 (stereo unspecified)
-4%,O=C(c1ccccc1)N1CCN(c2cc(-c3ccc(F)cc3)[nH]n2)CC1
3%,COC(=O)[C@H](Cc1ccc(OC)cc1)NC(=O)[C@@H]1CN(C(=O)NC(C)C)CCN1C(=O)C1CCCCC1
-4%[70.6 µM],CC(C)CCN1CCc2ncc(C(=O)NCCOc3ccccc3)n2CC1
-6%,O=C(Cc1cccc(F)c1)N1CCC2(CC1)CN(c1ncccn1)CC2CO (stereo unspecified)

# Later entries:
SMILES,NPR1 antag
CCN1C(=O)Cc2ccccc2C1C(=O)N(C)Cc1ccco1 (stereo unspecified),-2%
O=C(c1cc(F)ccc1F)N1CCC[C@H]1c1nc(-c2ccc(F)cc2)no1,1%
COc1ccc(C(=O)N2CC[C@@H]3CN(S(C)(=O)=O)[C@@H]3C2)c(C)c1,-4%
Cc1nc(-c2c3n(c(=O)n(CC(=O)Nc4ccccc4F)c2=O)CCCC3)no1,0%
O=C(C[C@@H]1O[C@H](CNS(=O)(=O)c2ccc(Cl)cc2)[C@@H](O)[C@H]1O)N1CCN(c2ccc(F)cc2)CC1,0%
CCc1noc(-c2cccn3c(CNC(=O)c4ccc(OC)c(F)c4)nnc23)n1,-13%
Cc1nn2c(c1-c1ccccc1OCc1ccccc1)N(C(=O)C(C)C)CCC2,-1%[70.6 µM]

# Printed as active in NPR1 antag, of those listed so far:
SMILES,NPR1 antag
COc1ccc(CC(=O)N2CCC(Cc3nc(-c4ccccc4)no3)CC2)cc1Cl,13µM*
COc1ccc(OCC2(C)COc3ccc(C(=O)Nc4ccn(C)n4)cc3N2)cc1 (stereo unspecified),18µM*
Cc1noc(-c2ccc(OC3CN(C(=O)Nc4ccccc4)C3)cc2)n1,13µM*

# An excerpt. The share of hits here may be higher or lower than overall.
